Screens deposited in PubChem BioAssay by ICCB-Longwood Screening Facility, Harvard Medical School.
GIV Gai3 FP = inhibitors of GIV peptide binding to Galpha-i3, primary screen, biochemical, fluorescence polarization, FITC-GIV GBA peptide, rat Galphai3. percent of control (FP), % (no concentration beside the values). actives 0.42% (n = 210,000). Guanine nucleotide-binding protein G(i) subunit alpha-3 (Rattus norvegicus), P08753. 90 min; active compounds read low; scaled: aluminum fluoride 0%, vehicle 100%;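 active = replicate mean at 85% of control or lower, very high polarization wells dropped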;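 also: wells of about 15 µL received 100 nL stock; the first replicate is given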
Target sequence (P08753 whole entry, looked up): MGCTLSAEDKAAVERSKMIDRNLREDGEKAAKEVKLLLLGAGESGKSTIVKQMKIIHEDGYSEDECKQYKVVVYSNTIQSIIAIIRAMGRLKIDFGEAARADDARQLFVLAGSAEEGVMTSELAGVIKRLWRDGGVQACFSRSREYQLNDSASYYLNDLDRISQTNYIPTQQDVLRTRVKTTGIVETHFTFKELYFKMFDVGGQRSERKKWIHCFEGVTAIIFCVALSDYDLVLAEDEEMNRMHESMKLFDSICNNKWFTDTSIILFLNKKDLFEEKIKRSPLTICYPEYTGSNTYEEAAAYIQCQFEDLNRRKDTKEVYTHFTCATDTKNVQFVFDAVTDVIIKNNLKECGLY
HCMV UL50-53 inh = inhibitors of HCMV UL50-UL53 interaction, biochemical, HTRF. HCMV UL50-UL53 nuclear egress complex (human cytomegalovirus). normalized percent inhibition. inhibition, % (test concentration not listed). actives 0.15% (n = 190,000). AID 1918969, 2023;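 active = both replicates at 50% or more, plus weaker picks with an unusually low signal ratio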;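 also: stock transfer was 100 nL into about 20 µL; 0% = negative control wells and 100% = wells with untagged competitor protein; inactives centre near -12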
Sa growth inh = S. aureus growth inhibition at 42 and 30 °C, primary screen, LtaS inhibitor project, RN4220, two temperatures; relative growth, % (test concentration not listed); actives 0.53% (n = 170,000); OD600, 20 h, 42 °C; active compounds read low;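 active = growth at 42 °C up to 50% and 20 or more points under that at 30 °C, or under 10% at both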;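 also: 300 nL library stock went into each well; scaled to the means of positive and negative controls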
Sa growth inh second temp = recorded beside Sa growth inh, whose call it bears; relative growth, %; measured here: growth at 30 °C;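 optical density after 20 h as mean of two plates; 100% = untreated growth and lower means inhibition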
* = called active by the depositor; · = not tested or not shown; & = joins results of further samples.

SMILES | GIV Gai3 FP | HCMV UL50-53 inh | Sa growth inh | Sa growth inh second temp
Cc1ccc(NC(=O)Cn2cc(S(=O)(=O)Cc3ccc(F)cc3)c3ccccc32)cc1Cl | 116 | · | 110 | 79
O=S(=O)(c1ccc(C2=NNC(=NC3CC3)SC2)cc1)N1CCCCC1 | · | -21 | 69 | 90
COC(=O)c1ccc(NC(=O)c2cnn(-c3ccc(Cl)cc3)c2C2CCN(C(=O)OC(C)(C)C)CC2)cc1 | 110 | · | 101 | 102
CC(Oc1ccccc1)C(=O)OCC(=O)N1CCC(c2ccccc2)=N1 (stereo not given) | · | -10 | 104 | 101
CN(C)c1ccc(CN)cc1 | 105 | -53 | 111 | 92
Cc1nnc(SCCC(=O)Nc2cccc(-c3nc4ccccc4s3)c2)s1 | 103 | · | 109 | 57
CC(=O)N1CCOc2cc(S(=O)(=O)N(C)Cc3ccccc3)c(Cl)cc21 | 106 | · | 85 | 107
CC(=O)N1N=C(c2cccs2)CC1c1c(C)coc1C (stereo not given) | 102 | 1 | 102 | 87
Cc1ccc(S(=O)(=O)CC(=O)Nc2ccc(-c3nc4ccc(C)cc4s3)cc2)cc1 | 111 | · | 118 | 84
O=C(O)CC(NCc1ccccc1)c1ccccc1 (stereo not given) | 98 | · | 103 | 86
CCn1c(=O)c2cc(C(=O)NCc3ccc(F)cc3Cl)sc2c2ccccc21 | 98 | -2 | 105 | 91
COc1ccccc1Nc1cnnc2c(Cl)cccc12 | 113 | -82 | 97 | 82
O=C(Nc1ccc(Cl)cc1)c1cc(S(=O)(=O)N2CCCc3ccccc32)ccc1F | 104 | · | 110 | 105
O=C(c1ccccc1)N1CCCCC(Sc2nnc3ccccn23)C1=O (stereo not given) | · | 13 | 99 | 97
CCSc1nc(=O)[nH]c2c1CCCC2 | 104 | -43 | 76 | 88
CC1(C)Cc2cccc(OCC(=O)OCC(=O)Nc3ccc4c(c3)OCO4)c2O1 | · | -7 | 101 | 84
O=S(=O)(Nc1ccccc1Br)c1cccs1 | 104 | -9 | 101 | 86
O=C(N/N=C/c1cccs1)c1ccccc1 | 99 | -65 | 104 | 102
Cc1cccc(NC(=O)C2=Cc3sc(C)c(C)c3CS2)c1C | 100 | · | 80 | 81
CC1=C(C(=O)Nc2ccc(Cl)cc2)SCCO1 | 110 | -26 | · | ·
CCc1ccccc1NC(=O)CSc1nc2c(c(=O)[nH]1)CN(Cc1ccccc1OC)CC2 | 105 | -5 | 117 | 88
CCOC(=O)CSc1nc(C)cc(Oc2ccc(=O)n(C)n2)n1 | 104 | -6 | 105 | 87
CCOC(=O)CNc1ncnc2c1nnn2C | 97 | · | 101 | 92
CCCC(C)C(=O)NCc1ccccc1OC (stereo not given) | · | -14 | 95 | 88
O=C1N=C(N2CCCC2)S/C1=C\c1cn[nH]c1-c1ccccc1 | 106 | -39 | 93 | 85
CCCn1c(SCC(=O)N=c2sc3ccccc3n2C)nc2ccccc21 | · | -27 | 99 | 88
Cc1onc(-c2ccccc2)c1C(=O)Nc1ccc(N)cc1 | 107 | -14 | 102 | 96
CC1(C)C2CC=C(/C=N/NC(=O)c3ccc4c(c3)OCO4)C1C2 (stereo not given) | · | -23 | 100 | 95
CCN(CC)c1ccc(NC(=O)CN2C(=O)C(C)(C)c3ccccc32)c(C)c1 | 101 | -16 | · | ·
NNC(=O)Cc1csc2nc(-c3ccccc3)nn12 | 101 | -13 | 93 | 86
CCCn1c(N)c(C(=O)CN(C)Cc2ccccc2)c(=O)[nH]c1=O | · | -4 | 90 | 94
Cc1ccc(NC(=O)CSc2nnc3nc(C)cc(C)n23)cc1 | 102 | 6 | 97 | 78
COc1ccc(/C=C/C(=O)OCC(=O)NC2CCCC(C)C2C)cc1 (stereo not given) | · | 17 | 97 | 102
CCc1nnc2n1N(C(C)=O)C(c1ccc(C(C)(C)C)cc1)=C(C(C)=O)S2 | 101 | · | 136 | 92
Cc1cccc(NC(=O)c2ccc3c(c2)NC(=O)CO3)c1C | 96 | -15 | · | ·
O=C(Cn1cnc(S(=O)(=O)N2CCCC2)c1)Nc1ccc(OC(F)(F)F)cc1 | 111 | · | 114 | 96
CCOC(=O)c1ccc2nc(C(F)(F)F)nc(NCCCc3ccccc3)c2c1 | 103 | · | 110 | 86
O=C(Cn1cccc1)NCc1cccs1 | 103 | 3 | 96 | 94
CCOc1ccc(NC(=O)N(CCCN2CCOCC2)Cc2cccnc2)cc1 | 103 | · | 113 | 85
CS(=O)(=O)c1sc(NC(=O)Nc2ccc(Cl)cc2)c2c1C=CCC2 | 104 | -40 | 88 | 73
Cc1ccc(NCC(O)C(O)C(O)CO)cc1C (stereo not given) | 101 | 2 | 109 | 101
NC(=O)C1CCN(C(=O)C2=Cc3ccccc3OC2)CC1 | 101 | -55 | · | ·
CC(CC(=O)N1CCN(Cc2ccc3c(c2)OCO3)CC1)CC1=NS(=O)(=O)c2ccccc2N1 (stereo not given) | 100 | -23 | · | ·
Cc1ccc(CNC(=O)c2ccccn2)n1C | · | -36 | 84 | 90
CCOC(=O)c1c(S(=O)(=O)N2CCC(C(=O)N3CCN(c4cc(C)ccc4C)CC3)CC2)c(C)n(C)c1C | 105 | · | 111 | 84
CCN(CC(=O)Nc1ccccc1OC)C(=O)c1ccco1 | · | -16 | 91 | 91
CCC(C)NC(=O)C1CCN(S(=O)(=O)c2ccc3c(c2)CCCN3C(C)=O)CC1 (stereo not given) | 107 | · | 125 | 89
Cc1ccc(OCCCn2c(-c3ccc(Cl)cc3)nc3ccccc3c2=O)cc1C | 99 | -7 | 107 | 98
COc1ccc(Nc2cc(C(=O)N3CCCCC3)c3ccccc3n2)cc1 | 96 | 1 | 104 | 98
C/C(=C/C(=O)C1CC1)C1CC1 | · | -12 | 90 | 83
COc1nc(C)nc2sc3c(c12)CCCC3 | · | -34 | 124 | 87
O=C1CC(C(=O)Nc2ccccc2)C2=C(CC(c3ccco3)CC2=O)N1 (stereo not given) | 103 | 7 | 100 | 96
Cc1ccc(S(=O)(=O)N(CCCN2CCOCC2)Cc2cccs2)cc1 | 104 | 10 | 101 | 84
Cc1ccc(C)c(CN2CCC(CNC(=O)c3cc4ccc5cccnc5c4[nH]3)CC2)c1 | 104 | · | 80 | 92
COc1ccc(/C=C/C(=O)ONC2=NCCCCC2)cc1OC | · | -78 | 86 | 91
COc1cccc(Cn2cnc3c2c(=O)n(C)c(=O)n3C)c1 | 101&95 | 8&-21 | 101 | 98
COC(=O)/C(C#N)=C(\C#N)c1ccc(Br)o1 | 106 | -1 | 92 | 95
Cc1ccc(-c2ccc(SCC#N)nn2)c(C)c1 | 101 | -105 | 80 | 85
COc1ccc(Nc2c(C#N)cnc3cc(OC)c(OC)cc23)cc1OC | 110 | -10 | · | ·
O=C(Nc1ccccc1SCC(O)CSc1cccs1)c1ccc(Cl)cc1 (stereo not given) | 104 | -9 | 90 | 85
(list continues)
SMILES | GIV Gai3 FP | HCMV UL50-53 inh | Sa growth inh | Sa growth inh second temp
CCOC(=O)c1c(C)[nH]c(C)c1S(=O)(=O)N1CCC(C(=O)NCc2cccc(C)c2)CC1 | 98 | · | 84 | 83
O=C(NC1CCCCC1)N1CCC(N2CCN(Cc3ccc(F)cc3)C(=O)C2=O)CC1 | 106 | -22 | · | ·
CC(C)NC(=S)N1CCC(Cc2ccccc2)CC1 | · | -14 | 105 | 94
CC1=C(C)C(=O)N(CCC(=O)O)C1=O | 95 | -30 | 106 | 94
CCCN1CCN(CCNS(=O)(=O)c2ccc(-c3cc(C(F)(F)F)no3)s2)CC1 | 103 | -47 | 114 | 83
CCN(CC)S(=O)(=O)c1ccc(N2CCCCS2(=O)=O)cc1 | 99 | · | 92 | 90
O=C(O)CSCC(=O)N1CCC(n2cccc2)CC1 | 93 | -9 | 97 | 93
O=C(Cn1c(CO)cnc1SCc1ccc(Br)cc1)NC1CC1 | 99 | -31 | · | ·
O=C(NCc1ccco1)c1ccc2c(c1)S(=O)(=O)N=C1CCCCCN12 | · | -15 | 101 | 92
COc1ccccc1N(C)S(=O)(=O)c1ccc(C(=O)OCC(=O)N2CCC2)cc1 | · | -11 | 90 | 90
Cc1cccc(NC(=O)NC(=O)c2ccc(C(C)(C)C)s2)n1 | 101 | -39 | 90 | 83
O=C(Nc1ccc(Br)c(C(F)(F)F)c1)c1ccc(CN2C(=O)c3ccccc3C2=O)o1 | 106 | -29 | 107 | 91
O=C(COc1ccc(S(=O)(=O)N2CCCc3ccccc32)cc1)NCC1CCCO1 (stereo not given) | 101 | -5 | 97 | 77
COc1ccc(-c2nc3c(s2)CN(C(=O)c2cccc(C)c2)CC3)cc1 | 99 | -16 | · | ·
O=S(=O)(c1cc(Cl)ccc1Cl)n1ccc(-c2ccc(Br)s2)n1 | 101 | -21 | 97 | 91
CCN1CCN(C(=O)N(CC)CC)CC1 | 104 | 0 | 103 | 102
O=C(/C=C/c1c(Cl)nc2sccn12)NCc1ccc2c(c1)OCO2 | · | -66 | 118 | 81
COc1ccccc1CNC(=O)CN(C)S(=O)(=O)c1cccc2cccnc12 | 102 | 3 | 97 | 89
Nc1nonc1-c1nc2ccccc2n1Cc1ccc(F)cc1Cl | · | -22 | 100 | 76
O=C1CS(=O)(=O)C2(C(=O)N(Cc3ccccc3)c3ccccc32)N1c1ccc(F)c(Cl)c1 (stereo not given) | 105 | · | 118 | 86
COCCCNC(=O)CSc1c2c(nc3ccc(Cl)cc13)CCCC2 | 104 | -36 | 96 | 92
CC1CC(C)CN(C(=O)CNC(=O)c2ccc(F)cc2)C1 (stereo not given) | · | -29 | 88 | 83
Nc1nc(SC23CC4CC(CC(C4)C2)C3)ns1 | 103 | -15 | 81 | 85
Cc1ccc(C(=O)O)cc1NC(=O)c1nsc2ccccc12 | 116 | -36 | 112 | 90
O=C(COC(=O)[C@@H]1CCCN1S(=O)(=O)c1ccccc1F)c1ccccc1 | · | -31 | 96 | 90
COc1cc2ccccc2cc1C(=O)Nc1ccc2oc(-c3ccc(F)cc3)nc2c1 | 109 | -50 | 99 | 88
CC1(C)C2CCC1(CS(=O)(=O)NCCCN1CCCC1=O)C(=O)C2 (stereo not given) | · | -4 | 85 | 90
COc1cccc2cc(C(=O)Nc3sc(C)c(-c4ccccc4)c3C(N)=O)c(=O)oc12 | 119 | -6 | 89 | 99
CCCn1c(=O)c2c(nc3n2CCN3c2ccc(C)cc2)n(C)c1=O | 104 | · | 117 | 100
COc1ccc(CC2C(=O)OC(C)(C)OC2=O)c(Cl)c1OC | 104 | -21 | 91 | 86
COc1ccc(NC(=O)CCCc2nnc3n(CCC(C)C)c(=O)c4sccc4n23)cc1Cl | 100 | · | 108 | 82
CCCc1nc2ccccc2n1CC(O)COc1cccc(C)c1 (stereo not given) | 112 | 1 | · | ·
CCC(=O)NCCc1nc2cc(NC(=O)Nc3ccccc3)ccc2n1C | 99 | -14 | 81 | 87
O=C1ON(c2ccccc2)C(c2ccccc2)N1c1ccc(Cl)cc1 (stereo not given) | 101 | -28 | 83 | 75
Nc1ccc(C(=O)NCC(=O)O)cc1 | · | -39&-11&-19 | 82 | 85
O=C(Cc1ccccc1)Nc1sc2c(c1C(=O)Nc1ccccc1)CCCCC2 | 105 | -18 | 102 | 97
CCOc1cccc(-c2nn3c(CSc4ccccc4)nnc3s2)c1 | 108 | -22 | · | ·
Cn1c(=O)c2c(nc3n(CC(O)c4ccccc4)c(-c4ccccc4)cn23)n(C)c1=O (stereo not given) | 108 | 6 | 97 | 93
C=CC[N+](C)(C)CCN1C(=O)C2C(c3ccccc3)C=CC(c3ccccc3)C2C1=O (stereo not given) | 104 | · | 92 | 87

Gathered by group: those above with an aryl thioether with sulfur outside any ring (13)
SMILES | GIV Gai3 FP | HCMV UL50-53 inh | Sa growth inh | Sa growth inh second temp
Cc1nnc(SCCC(=O)Nc2cccc(-c3nc4ccccc4s3)c2)s1 | 103 | · | 109 | 57
O=C(c1ccccc1)N1CCCCC(Sc2nnc3ccccn23)C1=O (stereo not given) | · | 13 | 99 | 97
CCSc1nc(=O)[nH]c2c1CCCC2 | 104 | -43 | 76 | 88
CCc1ccccc1NC(=O)CSc1nc2c(c(=O)[nH]1)CN(Cc1ccccc1OC)CC2 | 105 | -5 | 117 | 88
CCOC(=O)CSc1nc(C)cc(Oc2ccc(=O)n(C)n2)n1 | 104 | -6 | 105 | 87
CCCn1c(SCC(=O)N=c2sc3ccccc3n2C)nc2ccccc21 | · | -27 | 99 | 88
Cc1ccc(NC(=O)CSc2nnc3nc(C)cc(C)n23)cc1 | 102 | 6 | 97 | 78
Cc1ccc(-c2ccc(SCC#N)nn2)c(C)c1 | 101 | -105 | 80 | 85
O=C(Nc1ccccc1SCC(O)CSc1cccs1)c1ccc(Cl)cc1 (stereo not given) | 104 | -9 | 90 | 85
O=C(Cn1c(CO)cnc1SCc1ccc(Br)cc1)NC1CC1 | 99 | -31 | · | ·
COCCCNC(=O)CSc1c2c(nc3ccc(Cl)cc13)CCCC2 | 104 | -36 | 96 | 92
Nc1nc(SC23CC4CC(CC(C4)C2)C3)ns1 | 103 | -15 | 81 | 85
CCOc1cccc(-c2nn3c(CSc4ccccc4)nnc3s2)c1 | 108 | -22 | · | ·
